miR-21 reporter: qHTS Assay for Modulators of miRNAs and/orActivators of miR-21; Potency, µM (doses to about 38.3 µM), inactives show top-dose reporter change, positive = more light; 340,000 tested, under 10 active; HeLa miR-21 FLuc reporter, luciferase, 48 h; active = well fitted rising curve with a large enough effect; inconclusive = small, poorly fitted or top-dose-only effect; inactive = no such curve, though single readings can be large or run the other way;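 note: % of control where 0% means no effect; miR-21 action dims this reporter so a rising signal means less miR-21 action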
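HeLa miR-21-FLuc reporter line, endogenous miR-21; 2000 cells/well in DMEM/10% FBS; compound titration up to ~40uM final, 48 h, 37 degree Celsius; luciferase detection reagent, 15 min lysis, CCD luminescence.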
* hit, by the source's call. An excerpt; rates above refer to the full screens.

How did Cc1ccccc1OCC(=O)N1CCN(CCc2ccccn2)CC1 do in these assays?
miR-21 reporter: -4%

What do the screens show for `COc1cc(/C=C/c2nc3ccccc3c(=O)n2-c2ccc(Br)c(C)c2)ccc1O`?
miR-21 reporter: 13%

Results for Cc1cc(NC(=O)c2cccn(Cc3ccccc3)c2=O)no1 ?
miR-21 reporter: 0%

Results for CCOc1ccc2nc(NC(=O)c3cccn(Cc4ccc(Cl)cc4)c3=O)sc2c1 ?
miR-21 reporter: -6%

How did CC(C)C12CN3CC(C(C)C)(CN(C1)C3c1ccccn1)C2=O (stereo not drawn) do in these assays?
miR-21 reporter: 6%

Results for O=C(Nc1ccc2c(c1)OCO2)c1cccn(Cc2cccc(F)c2)c1=O ?
miR-21 reporter: -1%

What do the screens show for `CC(C)(C)c1ccc(OCC(=O)Nc2ccc(Cl)cc2C(=O)c2ccccc2)cc1`?
miR-21 reporter: 3%

Results for CCOc1ccc(-n2c(/C=C/c3ccccc3)nc3ccccc3c2=O)cc1 ?
miR-21 reporter: -3%

How did O=C(NCCSc1c(-c2ccc(F)cc2)[nH]c2ccccc12)c1ccc(S(=O)(=O)N2CCOCC2)cc1 do in these assays?
miR-21 reporter: inconclusive

What do the screens show for `COc1cccc(C(=O)Nc2ccc(-c3cc(C(F)(F)F)nn3-c3ccccc3)cc2)c1`?
miR-21 reporter: inconclusive

What do the screens show for `COc1ccc(Br)cc1C1SCC(=O)Nc2c1c(C)nn2-c1ccccc1C` (stereo not drawn)?
miR-21 reporter: -19%

How did CSc1ncc(C(=O)Nc2ccc(Cl)cc2C(=O)c2ccccc2)c(C)n1 do in these assays?
miR-21 reporter: 0%

Results for N#Cc1ccccc1NC(=O)c1cccn(Cc2ccccc2)c1=O ?
miR-21 reporter: 2%

What do the screens show for `COc1ccc(-n2c(/C=C\c3ccccc3F)nc3ccccc3c2=O)c(OC)c1`?
miR-21 reporter: -4%

Results for CCc1ccc(NC(=O)c2cccn(Cc3cccc([N+](=O)[O-])c3)c2=O)cc1 ?
miR-21 reporter: -6%

How did Cc1cccc(C2CC(=O)Oc3c2c(=O)oc2ccccc32)c1 (stereo not drawn) do in these assays?
miR-21 reporter: 2%

What do the screens show for `Cc1cccc(OCC(=O)N2CCN(Cc3cc(=O)n4nc(-c5ccccc5Cl)sc4n3)CC2)c1`?
miR-21 reporter: -2%

How did Cc1cccc(-n2c(/C=C/c3cn(C)c4ccccc34)nc3ccccc3c2=O)c1 do in these assays?
miR-21 reporter: -6%

What do the screens show for `Cc1ccccc1C1CC(=O)Nc2ccc3ccccc3c21` (stereo not drawn)?
miR-21 reporter: inconclusive

How did Cc1ccc(Cn2cccc(C(=O)Nc3ccc4c(c3)OCCO4)c2=O)cc1 do in these assays?
miR-21 reporter: -21%

20 consecutive compounds from above:
How did Cc1ccccc1OCC(=O)N1CCN(CCc2ccccn2)CC1 do in these assays?
miR-21 reporter: -4%

What do the screens show for `COc1cc(/C=C/c2nc3ccccc3c(=O)n2-c2ccc(Br)c(C)c2)ccc1O`?
miR-21 reporter: 13%

Results for Cc1cc(NC(=O)c2cccn(Cc3ccccc3)c2=O)no1 ?
miR-21 reporter: 0%

Results for CCOc1ccc2nc(NC(=O)c3cccn(Cc4ccc(Cl)cc4)c3=O)sc2c1 ?
miR-21 reporter: -6%

How did CC(C)C12CN3CC(C(C)C)(CN(C1)C3c1ccccn1)C2=O (stereo not drawn) do in these assays?
miR-21 reporter: 6%

Results for O=C(Nc1ccc2c(c1)OCO2)c1cccn(Cc2cccc(F)c2)c1=O ?
miR-21 reporter: -1%

What do the screens show for `CC(C)(C)c1ccc(OCC(=O)Nc2ccc(Cl)cc2C(=O)c2ccccc2)cc1`?
miR-21 reporter: 3%

Results for CCOc1ccc(-n2c(/C=C/c3ccccc3)nc3ccccc3c2=O)cc1 ?
miR-21 reporter: -3%

How did O=C(NCCSc1c(-c2ccc(F)cc2)[nH]c2ccccc12)c1ccc(S(=O)(=O)N2CCOCC2)cc1 do in these assays?
miR-21 reporter: inconclusive

What do the screens show for `COc1cccc(C(=O)Nc2ccc(-c3cc(C(F)(F)F)nn3-c3ccccc3)cc2)c1`?
miR-21 reporter: inconclusive

What do the screens show for `COc1ccc(Br)cc1C1SCC(=O)Nc2c1c(C)nn2-c1ccccc1C` (stereo not drawn)?
miR-21 reporter: -19%

How did CSc1ncc(C(=O)Nc2ccc(Cl)cc2C(=O)c2ccccc2)c(C)n1 do in these assays?
miR-21 reporter: 0%

Results for N#Cc1ccccc1NC(=O)c1cccn(Cc2ccccc2)c1=O ?
miR-21 reporter: 2%

What do the screens show for `COc1ccc(-n2c(/C=C\c3ccccc3F)nc3ccccc3c2=O)c(OC)c1`?
miR-21 reporter: -4%

Results for CCc1ccc(NC(=O)c2cccn(Cc3cccc([N+](=O)[O-])c3)c2=O)cc1 ?
miR-21 reporter: -6%

How did Cc1cccc(C2CC(=O)Oc3c2c(=O)oc2ccccc32)c1 (stereo not drawn) do in these assays?
miR-21 reporter: 2%

What do the screens show for `Cc1cccc(OCC(=O)N2CCN(Cc3cc(=O)n4nc(-c5ccccc5Cl)sc4n3)CC2)c1`?
miR-21 reporter: -2%

How did Cc1cccc(-n2c(/C=C/c3cn(C)c4ccccc34)nc3ccccc3c2=O)c1 do in these assays?
miR-21 reporter: -6%

What do the screens show for `Cc1ccccc1C1CC(=O)Nc2ccc3ccccc3c21` (stereo not drawn)?
miR-21 reporter: inconclusive

How did Cc1ccc(Cn2cccc(C(=O)Nc3ccc4c(c3)OCCO4)c2=O)cc1 do in these assays?
miR-21 reporter: -21%

New compounds follow:
What do the screens show for `Cc1ccc(-c2nc(CN3C(=O)CN=C(c4ccccc4Cl)c4cc(Cl)ccc43)c(C)o2)cc1`?
miR-21 reporter: 13%

How did CC(C)c1nn2c(=O)cc(COC(=O)Cc3ccccc3)nc2s1 do in these assays?
miR-21 reporter: -2%

What do the screens show for `Cc1nnc(NC(=O)c2cccn(Cc3cccc(F)c3)c2=O)s1`?
miR-21 reporter: 2%

Results for Cc1ccc2nc(NC(=O)c3cccn(Cc4ccc(Cl)cc4)c3=O)sc2c1 ?
miR-21 reporter: -2%

What do the screens show for `COc1cccc(-n2c(/C=C\c3ccc(Cl)cc3)nc3ccccc3c2=O)c1`?
miR-21 reporter: 2%

How did CCOc1ccc(NC(=O)CN(c2ccc(Cl)cc2C)S(=O)(=O)c2ccccc2)cc1 do in these assays?
miR-21 reporter: inconclusive

Results for O=C(COc1ccccc1F)N1CCN(Cc2cc(=O)n3nc(-c4ccccc4Cl)sc3n2)CC1 ?
miR-21 reporter: -5%

How did Cc1ccc(-n2c(/C=C/c3ccc(Br)s3)nc3ccccc3c2=O)cc1 do in these assays?
miR-21 reporter: 3%

Results for CCOc1ccc(C(=O)N2CCC(c3noc(-c4ccc(S(=O)(=O)N5CCCC5)cc4)n3)CC2)cc1 ?
miR-21 reporter: inconclusive

Results for COc1ccc(Cl)cc1NC(=O)CN1C(=O)CN=C(c2ccccc2)c2cc(Cl)ccc21 ?
miR-21 reporter: inconclusive

What do the screens show for `COc1ccc(OCC(=O)N2CCN(Cc3cc(=O)n4nc(-c5ccccc5C)sc4n3)CC2)cc1`?
miR-21 reporter: -8%

Results for Cc1ccc(Cn2cccc(C(=O)Nc3cc([N+](=O)[O-])ccc3C)c2=O)cc1 ?
miR-21 reporter: 0%

What do the screens show for `COc1ccc(N2CCN(CCCNC(=O)c3cnn(-c4ccc(F)cc4)c3-n3cccc3)CC2)cc1`?
miR-21 reporter: inconclusive

How did Cc1nnc(NC(=O)c2cccn(Cc3ccccc3)c2=O)s1 do in these assays?
miR-21 reporter: -3%

Results for CCC12CN3CC(CC)(CN(C1)C3c1ccccn1)C2=O (stereo not drawn) ?
miR-21 reporter: 0%

How did CC(=O)c1ccc(NC(=O)c2sc3nc4c(cc3c2N)N2CCC4CC2)cc1 do in these assays?
miR-21 reporter: 19%

What do the screens show for `CCCCc1ccc(NC(=O)c2cccn(Cc3ccc(Cl)cc3)c2=O)cc1`?
miR-21 reporter: 10%

How did CCOc1cccc(CC(=O)NCc2ccc3c(c2)CCN3C(=O)c2cccc(C)c2)c1OCC do in these assays?
miR-21 reporter: inconclusive

How did N#Cc1cccc(NC(=O)CSc2nc3c(cc2C#N)N2CCC3CC2)c1 do in these assays?
miR-21 reporter: -1%

What do the screens show for `O=C1CC(c2c(F)cccc2Cl)c2c(c3ccccc3oc2=O)O1` (stereo not drawn)?
miR-21 reporter: -6%

How did Cc1ccc(C(C)(C)C)c(OCC(=O)Nc2ccc(Cl)cc2C(=O)c2ccccc2)c1 do in these assays?
miR-21 reporter: -5%

Results for COP(=O)(OC)C(O)C(Cl)(Cl)Cl (stereo not drawn) ?
miR-21 reporter: -3%

What do the screens show for `COc1ccc(NC(C)=O)cc1NC(=O)c1cccn(Cc2ccccc2)c1=O`?
miR-21 reporter: -15%

Results for Cc1ccc(C(=O)COC(=O)c2cccc(NC(=O)c3ccc(Br)cc3)c2)cc1 ?
miR-21 reporter: -20%

How did Cc1cccc(CN2C(=O)CN=C(c3ccccc3)c3ccccc32)c1 do in these assays?
miR-21 reporter: 17%

Results for COc1ccc2[nH]cc(CCN=C(NC(=O)c3ccccc3OC)Nc3nc(C)cc(C)n3)c2c1 ?
miR-21 reporter: inconclusive

Results for Cc1cc(-n2c(/C=C/c3ccc(Br)s3)nc3ccccc3c2=O)ccc1Br ?
miR-21 reporter: -3%

Results for Cc1ccc(C(=O)Nc2c(C(=O)Nc3ccc(C)c(C)c3)sc3nc(C)cc(C)c23)cc1 ?
miR-21 reporter: -53%

Results for Cc1ccc(NC(=O)N(Cc2ccc3c(c2)OCO3)C2CCN(Cc3ccccc3)CC2)cc1F ?
miR-21 reporter: -5%

What do the screens show for `COc1ccccc1-n1c(/C=C/c2ccccc2)nc2ccccc2c1=O`?
miR-21 reporter: 15%

How did Cc1cc(C)cc(-n2c(/C=C/c3cccc(F)c3)nc3ccccc3c2=O)c1 do in these assays?
miR-21 reporter: -5%

What do the screens show for `Cc1ccccc1C(=O)Nc1ccc2nc(SCC(=O)N(C)c3ccccc3)sc2c1`?
miR-21 reporter: inconclusive

Results for Cc1ccc2scc(N3CCN(C)CC3)c(=O)c2c1 ?
miR-21 reporter: 1%

What do the screens show for `COc1cc(C(c2c(O)c3ccccc3oc2=O)c2c(C)n(C)n(-c3ccccc3)c2=O)ccc1OCC(=O)O` (stereo not drawn)?
miR-21 reporter: 3%

Results for Cc1cc(NC(=O)c2cccn(Cc3cccc([N+](=O)[O-])c3)c2=O)no1 ?
miR-21 reporter: 0%

Results for CN(C)c1ccc(CN2CCc3nc(N4CCN(c5ccccn5)CC4)ncc3C2)cc1 ?
miR-21 reporter: inconclusive

Results for COC(=O)c1ccc(NC(=O)c2cccn(Cc3ccccc3C)c2=O)cc1 ?
miR-21 reporter: 9%

Results for Cc1cccc(-c2nc(CN3C(=O)CN=C(c4ccccc4)c4ccccc43)c(C)o2)c1 ?
miR-21 reporter: 15%

Results for Cc1ccc(C)c(N2CCN(c3ncnc4onc(C)c34)CC2)c1 ?
miR-21 reporter: inconclusive

What do the screens show for `O=C(Nc1ccc(F)c(Cl)c1)N(Cc1ccc2c(c1)OCO2)C1CCN(Cc2ccccc2)CC1`?
miR-21 reporter: 8%

What do the screens show for `O=c1c2ccccc2nc(/C=C\c2cccc(Br)c2)n1-c1ccc(O)cc1`?
miR-21 reporter: 11%

What do the screens show for `Cc1ccccc1Cn1cccc(C(=O)Nc2cc(Cl)ccc2C#N)c1=O`?
miR-21 reporter: 1%

Results for Cc1ccc2c(c1)C(Cc1nc3ccccc3c(=O)n1-c1ccc(Br)cc1)C(=O)N2 (stereo not drawn) ?
miR-21 reporter: inconclusive

How did COC(=O)c1ccccc1NC(=O)c1cccn(Cc2cccc(Cl)c2)c1=O do in these assays?
miR-21 reporter: 3%

Results for O=C(COc1ccc(Br)cc1)Nc1ccc(Cl)cc1C(=O)c1ccccc1 ?
miR-21 reporter: -1%

Results for Cc1nnc(NC(=O)c2cccn(Cc3cccc([N+](=O)[O-])c3)c2=O)s1 ?
miR-21 reporter: -3%

How did c1ccc(N2CCN(c3ncnc4c3nc3n4CCCCC3)CC2)cc1 do in these assays?
miR-21 reporter: inconclusive

What do the screens show for `O=C(Nc1ccc(F)c([N+](=O)[O-])c1)c1cccn(Cc2ccccc2)c1=O`?
miR-21 reporter: -7%

Results for N#Cc1cc2c(nc1SCC(=O)Nc1ccc(Cl)c(C(F)(F)F)c1)C1CCN2CC1 ?
miR-21 reporter: inconclusive

How did CC(C)c1ccc(OCC(=O)N2CCN(CCc3ccncc3)CC2)cc1 do in these assays?
miR-21 reporter: -27%

Results for Cc1ccc2c(=O)n(-c3cccc(Cl)c3)c(=O)[nH]c2c1 ?
miR-21 reporter: -5%

What do the screens show for `O=C(Nc1nc2c(s1)CCCCCC2)Nc1ccc(F)cc1F`?
miR-21 reporter: -60%

What do the screens show for `Cc1ccc(-n2c(/C=C/c3cccs3)nc3ccccc3c2=O)cc1C`?
miR-21 reporter: 3%

Results for COc1cc2[nH]c(=O)n(CCCCCC(=O)N3CCN(c4cccc(C(F)(F)F)c4)CC3)c(=O)c2cc1OC ?
miR-21 reporter: inconclusive

Screening results (PubChem)
